Screening data from PubChem.
rRNA inh HTS = selective bacterial rRNA inhibition in E. coli; E. coli WT GFP vs humanized-ribosome RFP mutants, fluorescence, 24 h; active compounds read low; DMSO median 0, no signal -100; GFP signal change (wild-type ribosome), % (test concentration not listed); 350,000 compounds, 1.6% hits; AID 720706;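 active = significant combined selectivity score with lowered wild-type GFP, culture density cut under 30%, mutant RFP and density less affected; inactive = any of these conditions unmet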; also: one replicate is shown; some compounds called inactive have numbers as strong as hits
T cruzi repl = blocks replication of Trypanosoma cruzi; T. cruzi beta-gal in NIH3T3, luminescence, 90 h; inhibition, % (concentration not given with the values); 300,000 compounds, 1.4% hits;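 active = mean inhibition across valid replicates above about 55%, limit read from the data; inconclusive = mean below that limit but half or more replicates reach it; inactive = mean below it, under half of replicates reach it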;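 also: signal also drops with host cell toxicity which is not excluded here; 0% = plate median of DMSO wells and 100% = zero luminescence signal; higher percent means less beta-gal luminescence so fewer parasites; stock transfer was 50 nL into about 50 µL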
A1 inh = inhibitors of the anti-apoptotic protein A1, read as caspase activation | AID 2462 | MEF A1-2A-BIM cells, Caspase-Glo 3/7 luminescence, 3 h; percent of clofoctol response, vehicle zero | 330,000 compounds, 0.066% hits | caspase activation, % (concentration not given with the values);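 active = over half of replicate activation scores above 10%, or exactly half above 10 with the replicate mean above 10; inconclusive = replicate mean below 10 yet half the replicates above 10; inactive = over half of replicates below 10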;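 also: wells of about 30 µL received 50 nL stock; many hits fall short of the cut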
Beta2AR agonist = activates human beta-2 adrenergic receptor causing internalization | 340,000 compounds, 0.43% hits | response, % (concentration not given with the values) | P07550 | AID 504454 | Am2.2-beta2AR cells, FAP receptor internalization, flow cytometry; reference of the scale not given here;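 active = response above a set limit, near 3 SD of response in nonfluorescent compounds, cut at about 42% in these data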;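 also: stock transfer was 100 nL into about 11 µL; a reference agonist was the positive control; negative values mostly stem from fluorescent compounds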
LANA-H2A inh = blocks KSHV LANA binding to histone H2A/H2B | Q9QR71 | cell-free LANA-H2A/H2B peptide, fluorescence polarization | inhibition, % (concentration not given with the values) | 320,000 compounds, 0.6% hits | AID 2629; in the data active = inhibition mostly above about 10%, no sharp cut-off; inactive = mostly below about 6.7%;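 also: stock transfer was 7.5 nL into about 10 µL; 0% = median of vehicle wells and 100% = median of positive control wells; one replicate is shown; the record names a cut of 25% in any replicate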
Target sequence (Q9QR71 whole entry, looked up): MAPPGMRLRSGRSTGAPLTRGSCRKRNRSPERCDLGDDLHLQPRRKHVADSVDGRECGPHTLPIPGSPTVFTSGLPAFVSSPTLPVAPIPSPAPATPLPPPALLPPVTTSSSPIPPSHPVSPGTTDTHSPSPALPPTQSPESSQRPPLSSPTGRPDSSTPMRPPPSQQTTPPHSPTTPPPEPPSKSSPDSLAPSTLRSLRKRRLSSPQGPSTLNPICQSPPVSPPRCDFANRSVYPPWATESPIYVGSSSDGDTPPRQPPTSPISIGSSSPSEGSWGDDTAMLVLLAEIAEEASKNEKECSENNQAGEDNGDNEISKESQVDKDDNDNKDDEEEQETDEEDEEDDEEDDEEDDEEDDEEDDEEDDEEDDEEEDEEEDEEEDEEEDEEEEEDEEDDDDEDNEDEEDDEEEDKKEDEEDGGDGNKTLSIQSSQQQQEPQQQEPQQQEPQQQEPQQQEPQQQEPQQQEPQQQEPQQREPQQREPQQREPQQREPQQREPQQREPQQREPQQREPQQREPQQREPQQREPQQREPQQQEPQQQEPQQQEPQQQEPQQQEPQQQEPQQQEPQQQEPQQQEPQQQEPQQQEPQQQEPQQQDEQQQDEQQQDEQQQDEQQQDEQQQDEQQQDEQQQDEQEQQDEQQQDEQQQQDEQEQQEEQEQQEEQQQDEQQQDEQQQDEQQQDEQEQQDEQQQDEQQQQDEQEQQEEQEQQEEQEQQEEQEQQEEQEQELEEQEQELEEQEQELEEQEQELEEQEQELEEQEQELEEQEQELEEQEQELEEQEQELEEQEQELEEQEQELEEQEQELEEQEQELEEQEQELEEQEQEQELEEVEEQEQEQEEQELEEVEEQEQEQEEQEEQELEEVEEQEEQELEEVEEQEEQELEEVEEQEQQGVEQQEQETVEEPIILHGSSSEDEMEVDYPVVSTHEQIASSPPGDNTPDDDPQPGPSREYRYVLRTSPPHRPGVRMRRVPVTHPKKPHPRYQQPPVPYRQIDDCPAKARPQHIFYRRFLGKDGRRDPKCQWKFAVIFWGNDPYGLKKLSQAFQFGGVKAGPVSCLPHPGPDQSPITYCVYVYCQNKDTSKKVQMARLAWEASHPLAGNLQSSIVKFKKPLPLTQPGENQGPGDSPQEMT
ALR H2O2 inh = blocks human ALR sulfhydryl oxidase activity; P55789; purified ALR, DTT oxidation, H2O2 HRP-luminol luminescence; inhibition, % (test concentration not listed); 290,000 compounds, 3.8% hits; AID 485317;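 active = mean and each replicate at 75% or more; inconclusive = only one of the two met; inactive = neither met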;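 also: stock transfer was 7.5 nL into about 7.5 µL; 0% = neutral wells and 100% = wells with inactivated enzyme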
Beta apoptosis = beta cell apoptosis inhibition | INS-1E cytokine-induced death, ATP luminescence, 48 h; percent of positive-control rescue, neutral wells zero | protection from apoptosis, % (no concentration beside the values) | 300,000 compounds, 0.8% hits;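 active = all replicates at 75% or more, or half of them and the mean; inconclusive = half reach 75% but not the mean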;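 also: 0% = cytokine-treated negative control wells and 100% = positive control rescue; higher means more ATP so stronger rescue from cytokine killing; wells of about 40 µL received 100 nL stock; the first replicate is given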
Calb FLC = C. albicans growth modulation with fluconazole | growth inhibition, % (test concentration not listed) | C. albicans CaCi-2 (fluconazole-resistant clinical isolate) + fluconazole, Alamar Blue growth, 48 h | 300,000 compounds, 0.57% hits | AID 1979;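 active = most replicates above 75%; inconclusive = exactly half above 75%; inactive = most below 75%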;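 also: all wells also contain fluconazole at 8 µg/ml as a sub-toxic cotreatment; 0% = median of DMSO wells and 100% = median of geldanamycin control wells; wells of about 8 µL received 7.5 nL stock; the first replicate is given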
rRNA inh HTS OD600 = also measured in rRNA inh HTS; calls as there; OD600 change, %; measured here: OD600 growth;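 optical density of the mix in the first replicate; 0 = DMSO median and -100 = no signal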
rRNA inh HTS RFP = recorded beside rRNA inh HTS, whose call it bears; RFP signal change, %; measured here: RFP humanized mutant strains;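 first replicate; 0 = DMSO median and -100 = no signal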
An asterisk follows results filed as active; ? = inconclusive; · = no result given. Some of the compounds tested; count on the stated rates, not on these rows.

Values run as follows: LANA-H2A inh, rRNA inh HTS, Beta apoptosis, rRNA inh HTS RFP, T cruzi repl, Calb FLC, A1 inh, ALR H2O2 inh, Beta2AR agonist, rRNA inh HTS OD600
- c1ccc2c(c1)ncn2CCC1CCCCC1
    2.3, ·, 6.2, ·, -4.1, -22.7, 0.1, -48.5, -5.9, ·
- Cc1ccc(C2CC2c2n[nH]c(=S)n2-c2cccc(Cl)c2)cc1 (stereo not drawn)
    -3.1, ·, 4.1, ·, -3.7, -3.5, 2.2, 54.8, -3.0, ·
- O=C(CCc1ccccc1)NNC(=O)Nc1ccc(Cl)cc1
    -0.5, -0.7, ·, -2.1, -7.4, 10.7, -0.3, 2.8, 0.2, 7.6
- Cn1c(CNC(=O)CNC(=O)Cc2ccc(F)cc2)cc(=O)n(C)c1=O
    1.5, 3.4, 0.8, -2.8, -6.6, 1.2, ?, -0.8, 0.7, 6.0
- CCOC(=O)Cc1csc(NC(=O)c2ccc(C)cc2)n1
    -0.9, -13.3, 1.7, -0.9, -4.6, -11.0, -1.7, -25.3, -3.5, -10.4
- COc1ccc(C(=O)NC(C(=O)NCc2ccccc2OC)C(C)C)cc1 (stereo not drawn)
    3.6, 13.9, 3.1, 3.7, -1.4, -4.9, 0.2, -11.1, -3.3, 7.8
- COc1cc(/C=N/NC(=O)c2cccnc2)cc(Br)c1O
    2.2, -3.0, -1.8, -0.2, -6.1, -6.3, 0.3, 80.8*, 5.8, -7.9
- Cc1cc(C)cc(NC(=O)c2ccc3c(c2)CCN3S(C)(=O)=O)c1
    -0.6, -6.0, -5.1, 11.7, -2.2, -12.2, 0.0, -12.0, 5.4, 2.7
- COc1cc(NC(=S)Nc2ccccn2)c(OC)cc1Cl
    0.5, -9.3, -10.7, -2.4, -29.0, 18.0, 0.1, -18.3, 17.9, -5.3
- COC(=O)C1=C(C)N(Cc2ccccc2)C(=NCCc2cccnc2)N[C@H]1c1ccccc1
    3.1, ·, 2.5, ·, 17.3, -23.7, 0.2, -21.1, 19.0, ·
- COC(=O)C1(C)NCCc2c1[nH]c1ccccc21 (stereo not drawn)
    2.1, 0.0, 0.0, 2.9, -3.5, -3.3, 1.4, 4.4, 16.9, 1.7
- CCN(CC)c1c2c(c(C#N)c3nc4ccccc4n13)CCC2
    -5.0, ·, 6.6, ·, 8.3, -7.0, 0.0, -6.1, -8.0, ·
- CC[C@@]12C(=O)N(c3ccc(C)cc3)C(=O)N1[C@H](c1cccc(C)c1)[C@@H]1C(=O)N(Cc3ccccc3)C(=O)[C@@H]12
    -1.2, 6.5, 7.2, 0.4, -11.9, 11.3, 0.1, -4.9, -2.8, -1.9
- N#Cc1ccc(C(=O)NNC(=O)c2ccncc2)cc1
    -1.6, 8.1, -5.6, -5.4, -6.8, -0.1, 0.0, -0.8, 3.8, -0.8
- O=C(NCCN1CCCCC1)Nc1cccc(Cl)c1Cl
    -6.5, 3.4, ·, -1.0, -9.8, 3.3, 0.5, -0.6, -5.0, 6.3
- Clc1ccccc1C1=Nn2c(nnc2-c2ccco2)SC1
    -1.5, -19.2, 7.6, 0.2, -10.0, 23.8, 0.1, -6.1, -4.8, -24.0
- CC1CCN(C(=O)c2ccc(NC(=O)C3CCCO3)cc2)CC1 (stereo not drawn)
    -2.6, ·, -7.5, ·, 1.0, -5.7, 0.0, ·, -2.7, ·
- CCC(=O)NC(=S)Nc1ccc(NC(=O)c2ccco2)cc1
    -7.3, 2.6, 3.3, -6.4, -8.9, 5.8, -0.8, 1.5, -15.6, -10.7
- CC(OC(=O)C1CC2CCCC(C1)C2=O)C(=O)Nc1cccc([N+](=O)[O-])c1 (stereo not drawn)
    5.0, -2.8, 0.6, -2.7, ·, ·, 0.5, -9.7, -4.5, 5.8
- COc1cccc(CN2CC(C(=O)N3CCCO3)CCC2=O)c1 (stereo not drawn)
    -1.3, 5.0, -3.3, -3.3, -1.4, 4.7, 0.1, -5.8, 13.9, 13.2
- CCOC(=O)CC(=O)Nc1ccc(C(=O)OCC)cc1
    10.2, ·, 1.8, ·, -10.2, 1.1, 0.3, -7.2, 9.6, ·
- CCN1C(=O)C(O)(CC(=O)c2c(C)coc2C)c2ccccc21 (stereo not drawn)
    -1.1, 9.8, -1.5, 4.0, 7.3, 4.4, 2.1, -1.9, -12.8, 16.6
- CC(C)c1nnc(NC(=O)C2CCCN(C(=O)Nc3ccc(F)cc3)C2)s1 (stereo not drawn)
    7.4, 1.3, 1.9, -0.5, -4.1, -20.3, 0.4, 0.3, -2.5, -1.1
- CCN1C(=O)CSc2ccc(C(=O)NCc3ccccc3OC)cc21
    4.9, -21.8, -1.4, 6.0, 10.1, -9.3, 1.4, -0.6, -7.5, -22.6
- CCCCc1nc(NCCN2CCOCC2)c(C#N)c2c1COC(C)(C)C2
    0.5, ·, 3.1, ·, 16.5, 3.0, -0.1, -0.3, -11.1, ·
- CCN1CCN(/C=N/c2nc3c(s2)CCCC3)CC1
    -1.1, 25.2, ·, 0.1, -14.8, -1.1, -5.3, -1.9, 5.7, 12.2
- CS(=O)(=O)N(CC(=O)N1CCc2ccccc2C1)Cc1ccc(Cl)cc1
    0.9, ·, 2.9, ·, 13.5, 5.8, -1.2, -2.7, 2.9, ·
- COc1cc(-c2n[nH]c(=S)n2-c2cccc(C(F)(F)F)c2)cc(OC)c1OC
    ·, ·, 2.4, ·, 1.6, 12.8, 1.6, ·, -5.4, ·
- Cc1nc2ccc(NC(=O)N3CCSCC3)cc2s1
    -3.3, ·, -0.2, ·, -13.5, 6.9, 0.4, -16.6, 1.5, ·
- CC(=NCc1cccc(Cl)c1)c1nc(-c2ccco2)oc1O
    -0.8, ·, -3.8, ·, 2.2, -0.5, 0.0, 7.3, -0.8, ·
- Cc1nc2ccccc2c(=O)n1/N=C/c1ccc(N(C)C)cc1
    1.0, ·, -16.2, ·, 4.0, -12.9, -0.2, -0.4, -14.4, ·
- Cc1cccc(NS(=O)(=O)c2cccc3nsnc23)c1
    -2.1, ·, -2.0, ·, -11.5, -0.5, 0.8, 8.1, -5.3, ·
- CCNc1c([N+](=O)[O-])c(=O)oc2ccccc12
    0.2, 6.7, -5.3, -9.0, -4.5, 1.7, 0.2, 1.9, -6.0, 2.6
- CSc1cccc(NC(=O)c2c(Cl)cnn2C)c1
    1.1, -8.3, 2.6, 2.0, 3.2, -2.1, 0.1, 29.2, 3.4, -0.3
- CN1CCN(c2ccc(S(=O)(=O)N3CCOCC3)cc2)CC1
    1.8, 5.4, -7.5, -3.0, 11.9, ·, 0.1, -3.7, 8.8, 2.3
- O=C(NCC1CCCO1)c1cn(Cc2ccccc2)nc1-c1ccc(Cl)cc1 (stereo not drawn)
    3.2, -11.9, -3.3, -0.6, ·, ·, -1.7, ·, -7.3, -11.8
- O=C(CCCOc1cccc(Br)c1)NCCOc1ccccc1
    2.5, -5.8, -2.6, -10.6, -6.0, 3.7, 1.5, ·, 9.6, -27.6
- Cc1ccc(CNC(=O)CCS(=O)(=O)c2cccc3nonc23)cc1
    4.0, ·, ·, ·, -7.8, -4.5, -0.1, -9.8, -3.4, ·
- Cc1c(C(=O)O)cccc1-n1c(C)cc(/C=C(/C#N)C(=O)NCc2ccccc2)c1C
    -0.6, -12.9, 0.7, 1.0, 10.2, -4.2, -0.2, 29.2, -0.6, -10.9
- O=C(O)c1ccc(-c2ccc(O)c(F)c2)cc1
    -6.6, -5.0, -1.4, -1.4, -7.0, 2.6, -0.9, 98.0*, 12.5, -3.2
- Cn1c(=O)c2c(nc(CN3CCN(CCO)CC3)n2Cc2ccccc2Cl)n(C)c1=O
    2.9, -0.7, -4.7, 0.5, -17.9, -1.6, -0.2, ·, 7.2, 2.4
- C=CCC[C@H](Cc1ccc(F)cc1)C(=O)OC[C@@H](Cc1c[nH]c2ccccc12)NC(=O)[C@@H](CC=C)CC(=O)N[C@H](CO)Cc1ccccc1
    0.2, 3.2, 7.0, -5.9, ·, ·, -0.3, 0.3, -0.4, 8.5
- CCOC(=O)/C(C#N)=C/N1CCOCC1
    -4.9, 2.7, -4.5, 10.3, -13.2, -2.5, 0.9, ·, -3.5, 1.7
- c1ccc2nc3c(nc2c1)[nH]c1ccccc13
    7.3, ·, ·, ·, -2.9, 2.4, -6.9, -11.1, 1.0, ·
- Cc1ccc(S(=O)(=O)NCc2cccnc2)cc1C
    -6.9, 25.1, ·, 3.5, -9.9, 6.8, -0.6, -3.1, -6.1, 21.1
- COC(=O)C1CC(Cl)CN1c1ncc(C(F)(F)F)cc1Cl (stereo not drawn)
    0.0, -7.4, 2.2, 0.6, -4.3, 0.6, -1.7, -6.4, -1.6, -5.0
- O=C1CSC(=S)N1N=C1CCCCCC1
    7.4, 6.9, 2.8, 18.2, ·, ·, 0.2, 61.2, -1.2, 12.3
- Cn1c(=O)n(CCc2ccccc2)c2ccccc21
    -2.0, -6.5, 2.1, -5.1, 19.6, -7.6, 0.6, -2.4, -10.8, -4.9
- CN1CCN(/C=N/c2c(C#N)cnn2-c2ccccc2)CC1
    0.3, ·, 3.9, ·, ·, ·, 0.5, -6.7, -6.3, ·
- COc1cc(NC(=S)N2CCN(c3ccccn3)CC2)cc(OC)c1
    2.2, ·, -13.7, ·, 3.7, -4.1, -0.3, 0.5, -1.2, ·
- CN(C)S(=O)(=O)c1cccc(COc2ncnc3c(Cl)cc(Cl)cc23)c1
    -4.3, -9.4, 0.3, 0.9, 21.9, 11.3, 0.3, -2.0, -19.0, -2.2
- COCc1ccc([C@@H]2C[C@H]3CN(Cc4cccc(Cl)c4)C(=O)[C@]34CCCN24)o1
    1.6, 2.8, -0.3, -6.5, 5.3, 0.6, 0.9, -1.3, -1.6, 4.1
- COC(=O)CSc1snnc1-c1ccc(Cl)c(Cl)c1
    -1.8, ·, -3.5, ·, -5.7, 4.4, 0.3, -3.9, 8.6, ·
- CCn1c(SCC(=O)Nc2ccc(C(C)=O)cc2)nnc1C1CC1
    -1.5, 2.3, -3.1, -0.6, -9.3, 22.1, 0.2, 11.1, 5.0, 3.7
- CCOC(=O)CSc1nc(N)c(C#N)c(-c2ccc(OCC)cc2)c1C#N
    3.8, ·, -4.3, ·, 8.8, -5.4, -0.9, -1.8, 8.0, ·
